Screening results as filed in PubChem.
Calb biofilm kill: mixtures killing C. albicans biofilm; inhibition, % at 7.6 µM; C. albicans biofilm persisters + clotrimazole, fluorescence viability; primary screen in compound mixtures of four per well; AID 1242; 0.02% of 120,000 active;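 active means inhibition above 30.3% in the primary screen of four-compound pools, then above 30% when the compound was retested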;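 further: compounds exposed to preformed 24 h biofilms for 48 h; the number belongs to the whole pool; some results filed as inactive read as strong as hits; inactives centre near 12; 0% = biofilm with clotrimazole alone and 100% = kill control; retested singly at about 60 µM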
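Test system: C. albicans biofilms. Buffer or medium: RPMI/MOPS medium, pH 7.0. Timing: 48 h compound exposure at 37 °C. Technique: Alamar Blue fluorescence. Evaluation: percent inhibition of biofilm viability.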
Starred values were filed as active, the others as inactive. Not all compounds are listed; count on the stated rates, not on these rows.

How did CC1(c2nnc(-c3ccccc3)o2)CC(c2ccc(F)cc2)=NO1 (stereo unspecified) do in these assays?
Calb biofilm kill: 11

Results for C=CCC(NCc1ccccc1)c1ccc(C)o1 (stereo unspecified) ?
Calb biofilm kill: 13

What do the screens show for `Cn1c(/C(C#N)=C/c2ccncc2)nc2ccccc21`?
Calb biofilm kill: 19

How did Cc1ccsc1/C=N/NC(=O)Cc1ccc(Cl)cc1 do in these assays?
Calb biofilm kill: 16

How did Cc1ccc(/C=N/NC(=O)c2c(-c3ccccc3)noc2C)o1 do in these assays?
Calb biofilm kill: 17

What do the screens show for `Cc1nnc(SCc2nc3sc4c(c3c(=O)[nH]2)CCCC4)[nH]c1=O`?
Calb biofilm kill: 13

How did CCOC(=O)N1CCN(S(=O)(=O)c2ccc(C(=O)Nc3nnc(CSC)o3)cc2)CC1 do in these assays?
Calb biofilm kill: 15

Results for O=C(O)C(Cc1c[nH]c2ccccc12)N1CCS(=O)(=O)CC1 (stereo unspecified) ?
Calb biofilm kill: 16

Results for COc1ccc(N2C(=O)CC(S/C(N)=N/N=C/c3ccnc4ccccc34)C2=O)cc1 (stereo unspecified) ?
Calb biofilm kill: 18

What do the screens show for `Cc1ccc(C2=NNC(=O)C(c3c[nH]c4ccccc34)C2)cc1` (stereo unspecified)?
Calb biofilm kill: 13

Results for CCCCCC1CC(CC(=O)Nc2nncs2)C(=O)O1 (stereo unspecified) ?
Calb biofilm kill: 4

What do the screens show for `CCCn1c(SCC(=O)Nc2cccc(S(=O)(=O)N3CCCC3)c2)n[nH]c1=O`?
Calb biofilm kill: 5

How did CC1CCCC(NC(=O)COC(=O)c2sc3ccccc3c2Cl)C1C (stereo unspecified) do in these assays?
Calb biofilm kill: 22

How did Cc1ccc(S(=O)(=O)NCCSc2ncccn2)cc1 do in these assays?
Calb biofilm kill: 5

Results for CCOc1ccc(-n2c(C)cc(/C=C3/C(=N)N4C(=NC3=O)SN=C4S(C)(=O)=O)c2C)cc1 ?
Calb biofilm kill: 2

What do the screens show for `CN(C)c1ccc(/C=C2\C(=N)N3C(=NC2=O)Sc2cc(S(C)(=O)=O)ccc23)cc1`?
Calb biofilm kill: 9

How did Cc1nccc2[nH]c(=O)c(C(=O)NC(C)CCc3ccccc3)cc12 (stereo unspecified) do in these assays?
Calb biofilm kill: 10

What do the screens show for `COC(=O)COc1ccc(C2NC(=O)NC(C)=C2C(=O)NCc2ccccc2)cc1OC` (stereo unspecified)?
Calb biofilm kill: 6

Results for CN1CCN(C(=O)c2ccc(-n3cccn3)nc2)CC1 ?
Calb biofilm kill: 10

How did COc1ccc(/C=N/NC(=O)c2cc(OC)c(OC)c(OC)c2)cc1CN1CCc2cc(OC)c(OC)cc2C1C (stereo unspecified) do in these assays?
Calb biofilm kill: 9

How did Cc1ccccc1NC(=O)Cn1nnc2ccccc21 do in these assays?
Calb biofilm kill: 17

Results for O=C(CCC1CCCN(Cc2ccc3c(c2)CCO3)C1)NCc1ccc(F)c(F)c1 (stereo unspecified) ?
Calb biofilm kill: 5

Results for O=C(c1ccc(OC2CCN(Cc3ccccn3)CC2)cc1)N1CCCCCC1 ?
Calb biofilm kill: -2

How did O=S(=O)(Nc1ccc(N=Nc2ccccc2)cc1)c1ccccc1 do in these assays?
Calb biofilm kill: 14

What do the screens show for `O=C1CC(C(=O)Nc2ccc(Cl)cc2)n2ncnc2N1` (stereo unspecified)?
Calb biofilm kill: 8

How did Cc1ccc(/C=C/C(=O)Nc2sc(C)c(C)c2C(=O)OC(C)C)o1 do in these assays?
Calb biofilm kill: 6

How did O=C(Nc1ccc(N2CCOCC2)cc1)c1cccc(S(=O)(=O)N2CCCCCC2)c1 do in these assays?
Calb biofilm kill: -6

What do the screens show for `Cc1cccc(OCC(=O)Nc2cc(S(=O)(=O)N3CCCCC3)ccc2N2CCN(C)CC2)c1`?
Calb biofilm kill: 7

What do the screens show for `COc1ccc(N(CC(=O)Nc2ccc3c(c2)OCO3)S(=O)(=O)c2ccccc2)cc1OC`?
Calb biofilm kill: 18

How did CC(C)(C)NC(=O)c1cccc(NC(=O)CSc2ccc(Cl)cc2)c1 do in these assays?
Calb biofilm kill: 9

Results for CCOC(=O)c1ccc(NC(=O)CC2S/C(=N/N=C/c3c[nH]c4ccccc34)NC2=O)cc1 (stereo unspecified) ?
Calb biofilm kill: 11

Results for CCOc1cc(/C=C2\SC(=Nc3ccccc3)N(c3ccccc3)C2=O)ccc1OCC(=O)O ?
Calb biofilm kill: 18

How did Cc1cc(C)n2cc(CSc3ncn[nH]3)nc2n1 do in these assays?
Calb biofilm kill: 16

What do the screens show for `COC(=O)/C(=N/Nc1ccccc1OC)N1CCCc2ccccc21`?
Calb biofilm kill: 38

How did NC(=O)COc1ccc2oc(-c3ccccc3)cc(=O)c2c1 do in these assays?
Calb biofilm kill: 20

What do the screens show for `COc1ccc(S(=O)(=O)n2nc(-n3c(C)ccc3C)c3c(F)cccc32)cc1OC`?
Calb biofilm kill: 6

Results for Cc1ccc2c(C(=O)N3CCN(c4ccccc4)CC3)cc(-c3cccnc3)nc2c1C ?
Calb biofilm kill: 26

How did Cc1cc(C(=O)NNC(=O)c2cccc(Cl)c2)no1 do in these assays?
Calb biofilm kill: 17

What do the screens show for `C/C(CCc1ccc2c(c1)OCO2)=N\N=C1\NC(=O)CC(C(=O)Nc2ccccc2F)S1` (stereo unspecified)?
Calb biofilm kill: 19

Results for S=C(NCCCN1CCOCC1)NC1CCCC1 ?
Calb biofilm kill: 20

What do the screens show for `Cc1ccc(-n2cc(CNCCc3ncc(C)[nH]3)c(-c3ccc(F)cc3)n2)cc1`?
Calb biofilm kill: 7

Results for Oc1ccccc1/C=N/Nc1ccnc(SCc2ccccc2)n1 ?
Calb biofilm kill: 15

What do the screens show for `O=C(O)c1ccccc1P(=O)(c1ccccc1)c1ccccc1`?
Calb biofilm kill: 8

Results for O=C(CN(Cc1ccccc1)C(=O)c1cccc([N+](=O)[O-])c1)Nc1c(Cl)cc(Cl)cc1Cl ?
Calb biofilm kill: 9

How did O=S(=O)(c1ccc(Cl)cc1)N1CCC2(CC1)CO2 do in these assays?
Calb biofilm kill: 17

How did COc1cc(CCC(=O)OCC(=O)Nc2ccccc2OC(F)F)cc(OC)c1OC do in these assays?
Calb biofilm kill: 4

How did CC[C@@H]1CC=C[C@H]2[C@H]1C(=O)N(Cc1ccccc1)[C@H]2c1ccc(OC)c(Cl)c1 do in these assays?
Calb biofilm kill: 18

Results for COC(=O)c1ccc(COc2ccc(/C=N/O)cc2)o1 ?
Calb biofilm kill: 0

How did COc1cc(O)c(C(CCN2CCCC(C)C2)c2cc(OC)c(OC)c(OC)c2)c(OC)c1 (stereo unspecified) do in these assays?
Calb biofilm kill: 5

What do the screens show for `CCOc1cc(/C=C2\SC(=S)N(C(C(=O)O)c3ccccc3)C2=O)ccc1O` (stereo unspecified)?
Calb biofilm kill: 22

Results for S=C(NCCc1ccccc1)NCC1CCCO1 (stereo unspecified) ?
Calb biofilm kill: 24

Results for CCN(CC)CCN(C(=O)c1ccc(Br)s1)c1nc2cc3c(cc2s1)OCO3 ?
Calb biofilm kill: 20

How did O=C(C[n+]1cc(-c2ccccc2)n2c1CCC2)Nc1nc(-c2ccc(F)cc2)cs1 do in these assays?
Calb biofilm kill: 18

How did Nn1c(SCc2ccc(Br)cc2)nnc1-c1ccncc1 do in these assays?
Calb biofilm kill: 7

What do the screens show for `CCN1CCN(c2cc3nc(C)n(Cc4ccccc4)c(=O)c3cc2NC(=O)c2ccccc2F)CC1`?
Calb biofilm kill: 21

Results for COc1ccc(CN(CC2CCCO2)C(=O)c2cc3ccccc3oc2=O)cc1 (stereo unspecified) ?
Calb biofilm kill: 14

Results for CS(=O)(=O)N(CC(=O)Nc1ccccc1C(=O)N1CCOCC1)c1ccc(Cl)cc1 ?
Calb biofilm kill: 10

Results for C=CCn1c(Cc2cccc3ccccc23)n[nH]c1=S ?
Calb biofilm kill: 12

Results for Cc1[nH]c2ccccc2c1CN1CCC(CO)(Cc2ccccc2)CC1 ?
Calb biofilm kill: -3

What do the screens show for `COc1ccc(CCNC2CC(=O)N(C3CCCCC3)C2=O)cc1OC` (stereo unspecified)?
Calb biofilm kill: 18

How did O=C(CNC(=S)N(CCCN1CCOCC1)Cc1cccs1)NC1CCCC1 do in these assays?
Calb biofilm kill: 4

Results for CC(C)(C)N1OC2CC1c1nc3ccccc3n1C2 (stereo unspecified) ?
Calb biofilm kill: 7

Results for CCOC(=O)C1=C(CN2CC(C)CC(C)C2)NC(=O)NC1c1ccc2c(c1)OCO2 (stereo unspecified) ?
Calb biofilm kill: 23

How did Cc1ccc2nc(-c3cccc(NS(C)(=O)=O)c3)cc(-c3ccccc3)c2c1 do in these assays?
Calb biofilm kill: 12

How did Cn1ncc(C(N)=O)c1NC(=S)NC(=O)c1ccc(Br)o1 do in these assays?
Calb biofilm kill: 14

Results for COc1ccccc1CNC(=O)CSC1=NCCS1 ?
Calb biofilm kill: 4

How did Cc1nn(Cc2ccccc2Cl)c(Cl)c1C(=O)NCCc1ccccc1 do in these assays?
Calb biofilm kill: -11

What do the screens show for `CCOCCCNC(=O)CN1C(=O)/C(=C/c2ccccc2C)Sc2ccccc21`?
Calb biofilm kill: 8

How did Cc1cccc(C)c1NC(=O)CCCCCC1NC(=O)NC1C (stereo unspecified) do in these assays?
Calb biofilm kill: 7

What do the screens show for `C#CCOCCOCCOCCNc1nc(N2CCN(C(=O)[C@H](CCCCN)n3cc([C@@H](N)CC(C)C)nn3)CC2)nc(N2CCN(C(=O)[C@H](Cc3ccc(O)cc3)n3cc([C@@H](N)CC(C)C)nn3)CC2)n1`?
Calb biofilm kill: 13

How did Cc1oc2nc(SCC(=O)N3CCCCC3)nc(N)c2c1C do in these assays?
Calb biofilm kill: 17

What do the screens show for `C[C@H](NC(=O)c1ccco1)C(=O)NCCc1ccc(S(N)(=O)=O)cc1`?
Calb biofilm kill: 10

Results for Cc1ccccc1C1(CCN2CCCCC2)CCOC(C)(C)C1 (stereo unspecified) ?
Calb biofilm kill: 18

Results for CCOc1cc(N2CCOCC2)c(OCC)cc1NC(=O)c1ccco1 ?
Calb biofilm kill: 6

How did CCCC(=O)NNC(=O)c1ccoc1C do in these assays?
Calb biofilm kill: 9

What do the screens show for `O=C(CC1C(=O)NCCN1Cc1c(F)cccc1Cl)NCCc1ccccn1` (stereo unspecified)?
Calb biofilm kill: 27

Results for CC(C)(C)C(=O)Nc1cc(C(F)(F)F)ccc1-n1ccnc1 ?
Calb biofilm kill: 14

How did CC(C)C(=O)Nc1sc2c(c1C#N)CCCCC2 do in these assays?
Calb biofilm kill: -4

Results for COc1cc(/C=N/NC(=O)Cc2ccc(Br)cc2)cc(OC)c1O ?
Calb biofilm kill: 7

How did COCCn1c(=NC(C)=O)sc2cc([N+](=O)[O-])ccc21 do in these assays?
Calb biofilm kill: 4

What do the screens show for `O=S(=O)(c1ccc2ccccc2c1)N(CC1CO1)c1ccccc1` (stereo unspecified)?
Calb biofilm kill: 20

What do the screens show for `Cc1ccc(/C=N\NC(=O)C2CN(S(=O)(=O)c3ccccc3)CCN2S(=O)(=O)c2ccccc2)cc1` (stereo unspecified)?
Calb biofilm kill: 8

What do the screens show for `COc1cccc(NS(=O)(=O)c2ccc3c(c2)C2C=CCC2C(c2ccc(C(=O)O)cc2)N3)c1` (stereo unspecified)?
Calb biofilm kill: 11

What do the screens show for `CC(=O)Nc1ccc(S(=O)(=O)Oc2ccc(C(=S)N3CCCCC3)cc2)cc1`?
Calb biofilm kill: 12

What do the screens show for `CCOC(=O)C1CCN(C(=O)c2cccc(NS(=O)(=O)c3ccc(F)c(F)c3)c2)CC1`?
Calb biofilm kill: 8

How did CN(C)/C=C1\NC(=S)N(c2ccc(Cl)cc2)C1=O do in these assays?
Calb biofilm kill: 6

What do the screens show for `Cc1cc(C(=O)Nc2ccccc2C(=O)N2CCCCC2)ccc1[N+](=O)[O-]`?
Calb biofilm kill: 12

Entries above with an aryl methoxy group, in the order listed:
Results for COc1ccc(N2C(=O)CC(S/C(N)=N/N=C/c3ccnc4ccccc34)C2=O)cc1 (stereo unspecified) ?
Calb biofilm kill: 18

What do the screens show for `COC(=O)COc1ccc(C2NC(=O)NC(C)=C2C(=O)NCc2ccccc2)cc1OC` (stereo unspecified)?
Calb biofilm kill: 6

How did COc1ccc(/C=N/NC(=O)c2cc(OC)c(OC)c(OC)c2)cc1CN1CCc2cc(OC)c(OC)cc2C1C (stereo unspecified) do in these assays?
Calb biofilm kill: 9

What do the screens show for `COc1ccc(N(CC(=O)Nc2ccc3c(c2)OCO3)S(=O)(=O)c2ccccc2)cc1OC`?
Calb biofilm kill: 18

What do the screens show for `COC(=O)/C(=N/Nc1ccccc1OC)N1CCCc2ccccc21`?
Calb biofilm kill: 38

What do the screens show for `COc1ccc(S(=O)(=O)n2nc(-n3c(C)ccc3C)c3c(F)cccc32)cc1OC`?
Calb biofilm kill: 6

How did COc1cc(CCC(=O)OCC(=O)Nc2ccccc2OC(F)F)cc(OC)c1OC do in these assays?
Calb biofilm kill: 4

How did CC[C@@H]1CC=C[C@H]2[C@H]1C(=O)N(Cc1ccccc1)[C@H]2c1ccc(OC)c(Cl)c1 do in these assays?
Calb biofilm kill: 18

How did COc1cc(O)c(C(CCN2CCCC(C)C2)c2cc(OC)c(OC)c(OC)c2)c(OC)c1 (stereo unspecified) do in these assays?
Calb biofilm kill: 5

Results for COc1ccc(CN(CC2CCCO2)C(=O)c2cc3ccccc3oc2=O)cc1 (stereo unspecified) ?
Calb biofilm kill: 14

What do the screens show for `COc1ccc(CCNC2CC(=O)N(C3CCCCC3)C2=O)cc1OC` (stereo unspecified)?
Calb biofilm kill: 18

Results for COc1ccccc1CNC(=O)CSC1=NCCS1 ?
Calb biofilm kill: 4

Results for COc1cc(/C=N/NC(=O)Cc2ccc(Br)cc2)cc(OC)c1O ?
Calb biofilm kill: 7

What do the screens show for `COc1cccc(NS(=O)(=O)c2ccc3c(c2)C2C=CCC2C(c2ccc(C(=O)O)cc2)N3)c1` (stereo unspecified)?
Calb biofilm kill: 11
